Assay outcomes from PubChem BioAssay.
GIRK2 activ: activators of human GIRK2 potassium channels; P48051; HEK293-GIRK2 thallium flux, Thallos fluorescence; calls only for hits at 25 µM; 63,000 tested, 0.05% active;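 active = among the strongest 0.2% of first-round signals and kept after retests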;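 note: first round at about 10 µM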
Target sequence (P48051 whole entry, looked up): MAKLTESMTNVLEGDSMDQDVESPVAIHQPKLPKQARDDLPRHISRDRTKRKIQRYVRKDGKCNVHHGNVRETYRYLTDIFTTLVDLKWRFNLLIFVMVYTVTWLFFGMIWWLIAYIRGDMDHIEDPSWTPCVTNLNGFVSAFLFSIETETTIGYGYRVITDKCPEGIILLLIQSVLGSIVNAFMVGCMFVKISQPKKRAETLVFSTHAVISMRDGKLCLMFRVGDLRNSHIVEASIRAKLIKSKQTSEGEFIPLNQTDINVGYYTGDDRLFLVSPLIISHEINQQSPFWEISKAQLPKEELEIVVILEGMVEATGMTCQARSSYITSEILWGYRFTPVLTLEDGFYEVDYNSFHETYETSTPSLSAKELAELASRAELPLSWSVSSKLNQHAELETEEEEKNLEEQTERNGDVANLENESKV
Calls only; i = inactive; + = active, no number.

SMILES	GIRK2 activ
COc1ccc(CC(C)(O)CNC(=O)c2cccc(Cl)c2)cc1 (centres undefined)	i
O=C(Nc1ccc2c(c1)OCO2)N1CCC(CSCc2ccco2)CC1	i
O=c1c2ccccc2c(-c2nc(-c3ccccn3)no2)nn1-c1ccc(Br)cc1	i
O=C(c1ccc(Br)s1)N(CCN1CCOCC1)c1nc2ccc(F)cc2s1	i
CCS(=O)(=O)NCCc1ccoc1	i
CCOc1cc(C(=O)NCc2n[nH]c(=O)c3ccccc23)cc(OCC)c1OCC	i
O=C1CCc2cc(NC(=O)c3ccc4c(c3)OCO4)ccc2N1	i
COC(=O)c1ccccc1NC1=CC(=NS(=O)(=O)c2ccc(F)cc2)c2ccccc2C1=O	i
Cn1nc(-c2ccccc2)cc1C(=O)NCc1ccccn1	i
CCOC(=O)c1ccc(NC(=O)CN2N=NC3C(=O)N(c4ccc(C)cc4)C(=O)C32)cc1 (centres undefined)	i
COc1ccc(CCNc2nccn(-c3ccc(Br)cc3)c2=O)cc1OC	i
N#Cc1nc(/C=C/c2ccccc2)oc1N1CCN(C(=O)c2ccccc2)CC1	i
Cc1nc(-c2ccc(N3CCN(C(=O)CSc4nc5ccccc5o4)CC3)nc2)no1	i
CS(=O)(=O)c1ccc2nc(N(Cc3ccccc3)C(=O)c3ccc4ccccc4c3)sc2c1	i
COc1ccc(CCNC(=O)Cn2nc3c(Oc4ccccc4)nccn3c2=O)cc1OC	i
Cc1nn(C2CCS(=O)(=O)C2)c(C)c1N1CCN(S(=O)(=O)c2cccc(Cl)c2C)CC1 (centres undefined)	i
CC1(C)OCC2(CO1)CN(S(=O)(=O)c1c(F)cccc1F)C2	i
COc1ccc(CN2C(=S)NC3CC2(C)Oc2c(OC)cccc23)cc1 (centres undefined)	i
COc1ccc(CC(=O)Nc2ccc(Cn3cnc(C(=O)Nc4ccc(C)cc4C)c3)cc2)cc1	i
O=S(=O)(c1ccc2c(c1)OCCO2)N1CCN(S(=O)(=O)C2CC2)CC1	i
CCCCCNc1nc2c(c(=O)[nH]c(=O)n2C)n1CC(O)COc1ccc([N+](=O)[O-])cc1 (centres undefined)	i
O=C(Nc1cccc(F)c1)c1ccc(=O)n(Cc2cccc([N+](=O)[O-])c2)c1	i
O=C(Nc1ccc(N2CCCC2=O)cc1)c1ccc2nsnc2c1	i
O=C(CSc1nnc(-c2cccc(S(=O)(=O)N3CCCCCC3)c2)o1)c1ccccc1	i
Cc1ccc(NC(=O)C(=O)NCCC(O)C2CC2)cc1N1CCCC1=O (centres undefined)	i
Remaining list, next part
SMILES	GIRK2 activ
O=C(NCCOc1ccccc1)c1c(F)cccc1F	i
CCC(C(=O)NCc1ncc(-c2ccc(OC)cc2)[nH]1)c1ccccc1 (centres undefined)	i
COc1ccccc1S(=O)(=O)N1CCC(OC)CC1	i
O=C(NCc1cccc2ccccc12)N1CC(c2nc(-c3cccnc3)no2)C1	i
CC(C)CCNC(=O)c1sccc1S(=O)(=O)N(C)c1ccc(Cl)cc1	i
Cc1cc(C)n(-c2ccc(=O)n(CCNC(=O)CSc3nc4ccccc4s3)n2)n1	i
CN(C(=O)c1ccc(-c2ccccc2Cl)o1)C1CCS(=O)(=O)C1 (centres undefined)	i
O=C(Nc1cc(N2CCCCC2)ncn1)c1ccc2ncsc2c1	i
CC(=O)c1cccc(NC(=O)c2ccc(S(C)(=O)=O)cc2)c1	i
COc1cccc(-n2c(=S)sc3c(=O)[nH]c(SCC(=O)N4CCCCC4)nc32)c1	i
COC(=O)c1ccc(CN2CC(c3nc(-c4cccnc4)no3)C2)o1	i
COc1ccc(-c2nnc(SCC(=O)Nc3ccccc3)n2N)cc1OC	i
O=C(Nc1ccccc1Cl)C1CCCN(c2ccc(-c3ccco3)nn2)C1 (centres undefined)	i
O=C(Cn1c(C2CC2)nc2c(cnn2-c2ccccc2)c1=O)NC1CCCCC1	i
Cc1ccc(-c2cc(=O)n(CC(=O)Nc3ccc(OC(F)(F)F)cc3)[nH]2)cc1	i
Cn1c(=O)n(CC(N)=O)c(=O)c2c1nc1n(-c3ccccc3)c(-c3ccccc3)cn21	i
CC1(C)OCC2(CO1)CN(C(=O)c1cnn3c1OCCC3)C2	i
CCOc1coc(C(=O)NCc2ccccc2Cl)cc1=O	i
COc1coc(C(=O)Nc2ccc(Oc3ccccc3)cc2)cc1=O	+
COc1ccc(CC(=O)Nc2ccc(Cn3cnc(C(=O)NCc4ccccc4)c3)cc2)cc1	i
COc1ccc(-c2cc3c(=O)n(CC(=O)N4CCN(c5ccccc5F)CC4)ccn3n2)cc1	i
N#Cc1nc(-c2ccccc2)oc1N1CCN(C(=O)c2ccc(F)cc2)CC1	i
COc1cc(/C=C2\SC(=S)N(c3ccc(C(C)=O)cc3)C2=O)cc(OC)c1OC	i
O=C(c1cc(-c2ccc(F)cc2)n[nH]1)N1CCN(c2ccc(-c3noc(C(F)(F)F)n3)cn2)CC1	i
CC(C)c1nc(-c2ccc(N3CCN(C(=O)c4cc(-c5ccccc5)n[nH]4)CC3)nc2)no1	i
Further records.
SMILES	GIRK2 activ
CCCCC(C)(C)[C@H](O)/C=C/[C@H]1C=CC(=O)[C@@H]1CCCCCCC(=O)O	i
CC(=O)c1cccc(S(=O)(=O)N2CC(c3nc(-c4cccs4)no3)C2)c1	i
CCOC(=O)N1CCN(C(=O)Cn2nc(-c3ccco3)ccc2=O)CC1	i
CCCC(CCC)C(=O)NCc1n[nH]c(=O)c2ccccc12	i
CC(Oc1ccccc1)C(=O)NCCCS(=O)(=O)N1CCN(c2ccccc2)CC1 (centres undefined)	i
Cc1cccc(C)c1OCC(=O)Nc1ccc(N2CCOCC2)cc1	i
COc1ccc(-c2noc(-c3cn(C)c4cc(N5CCC(C)CC5)c(F)cc4c3=O)n2)cc1OC	i
COc1ccc(CCNC(=O)NCc2cc(-c3ccccn3)n(C)n2)cc1	i
CC(C)(C)n1c(=O)c2ccc(Cl)cc2n1CC(=O)Nc1ccc2c(c1)OCCO2	i
Cc1nc(NCCNS(=O)(=O)c2cccc(Cl)c2)cc(Nc2ccccn2)n1	i
C/C(=C\CC[C@@H](C)[C@H]1CC(O)[C@@]2(C)C3CC[C@H]4C(C)(C)[C@@H](O[C@@H]5OC(COC6OCC(O)C(O)C6O)C(O)C(O)C5O)CC[C@@]45C[C@@]35CC(O)[C@]12C)C(=O)OC1OC(CO)C(O)C(O)C1O (some centres undefined)	i
CC(C)Oc1ccc(C(=O)c2ccc(NC3=NCCN3)cc2)cc1	i
CC(=O)Nc1ccc(N/C=C(\C#N)c2nc(C3CC3)cs2)cc1	i
C=CCN1CC(c2nc3ccccc3n2CC(=O)N(c2ccccc2)C(C)C)CC1=O (centres undefined)	i
COCCn1c(N2CCN(Cc3ccccc3)CC2)nc2c1c(=O)[nH]c(=O)n2C	i
CCOc1cc(C(=O)NC(C)C(=O)Nc2nc3ccccc3[nH]2)cc(OCC)c1OCC (centres undefined)	i
COC(=O)COc1ccc2c(c1C)O/C(=C\c1ccc(OC)cc1)C2=O	i
O=C(COc1ccccc1)Nc1ccc2c(=O)c3cccc(F)c3oc2c1	i
COc1ccc(Cl)cc1NC(=O)CSc1nc2c(c(=O)[nH]1)CN(Cc1ccccc1)CC2	i
O=C(Cn1nc2c(=O)n(-c3ccc(Br)cc3)ccn2c1=O)Nc1ccccc1	i
O=C(NCC1CCN(C(=O)COc2ccccc2)CC1)c1cc(C2CC2)on1	i
Cc1csc2nc(CSc3ccc(Cl)cc3)cn12	i
COc1cccc(NC(=O)Cn2cnc3sc(-c4nc(-c5ccccc5)no4)c(C)c3c2=O)c1	i
Cc1ccc(NC(=O)NCCN2CCN(c3ccc(F)cc3)CC2)cc1	i
COc1ccc(N2C(=O)C3CC(C)=C(C)CC3C2=O)cc1 (centres undefined)	i

Sorted by formula weight (ascending): part of the list above.
SMILES	GIRK2 activ
CCS(=O)(=O)NCCc1ccoc1	i
CC1(C)OCC2(CO1)CN(C(=O)c1cnn3c1OCCC3)C2	i
O=C1CCc2cc(NC(=O)c3ccc4c(c3)OCO4)ccc2N1	i
CC(C)Oc1ccc(C(=O)c2ccc(NC3=NCCN3)cc2)cc1	i
COc1coc(C(=O)Nc2ccc(Oc3ccccc3)cc2)cc1=O	+
Cc1cccc(C)c1OCC(=O)Nc1ccc(N2CCOCC2)cc1	i
O=C(Nc1cccc(F)c1)c1ccc(=O)n(Cc2cccc([N+](=O)[O-])c2)c1	i
O=C(NCC1CCN(C(=O)COc2ccccc2)CC1)c1cc(C2CC2)on1	i
O=C(NCc1cccc2ccccc12)N1CC(c2nc(-c3cccnc3)no2)C1	i
CC(=O)c1cccc(S(=O)(=O)N2CC(c3nc(-c4cccs4)no3)C2)c1	i
Cn1c(=O)n(CC(N)=O)c(=O)c2c1nc1n(-c3ccccc3)c(-c3ccccc3)cn21	i
Cc1nc(NCCNS(=O)(=O)c2cccc(Cl)c2)cc(Nc2ccccn2)n1	i
COc1cccc(-n2c(=S)sc3c(=O)[nH]c(SCC(=O)N4CCCCC4)nc32)c1	i
O=C(CSc1nnc(-c2cccc(S(=O)(=O)N3CCCCCC3)c2)o1)c1ccccc1	i
C/C(=C\CC[C@@H](C)[C@H]1CC(O)[C@@]2(C)C3CC[C@H]4C(C)(C)[C@@H](O[C@@H]5OC(COC6OCC(O)C(O)C6O)C(O)C(O)C5O)CC[C@@]45C[C@@]35CC(O)[C@]12C)C(=O)OC1OC(CO)C(O)C(O)C1O (some centres undefined)	i

Going on with the list.
SMILES	GIRK2 activ
O=S(=O)(NCC1(O)CCOc2ccccc21)c1ccccc1F (centres undefined)	i
O=C(CN1CCN(c2ccccc2)C1=O)NCc1nc2ccccc2[nH]1	i
COc1ccccc1C(O)Cn1cc(C(=O)Nc2ccc(Br)c(C)c2)nn1 (centres undefined)	i
CC(O)CNC(=O)C(=O)Nc1ccc(C(F)(F)F)cc1 (centres undefined)	i
COc1ccc(N2C(=O)C3N=NN(Cc4cc(C)ccc4C)C3C2=O)cc1OC (centres undefined)	i
O=S(=O)(NCC1(CO)CC1)c1ccc(Br)cc1	i
COc1cccc(CSc2nc(C)c(CC(=O)Nc3cccc(C(C)=O)c3)c(=O)[nH]2)c1	i
Cn1c(=O)c2c(nc3n2CC(O)CN3c2ccc3ccccc3c2)n(C)c1=O (centres undefined)	i
Cc1ccc(CNC(=O)Cn2cnc3c(-c4ccc(C)cc4)nsc3c2=O)cc1	i
COc1cccc2cc(C(=O)NCCN3CCOCC3)oc12	i
COc1ccc(OC)c(NC(=O)c2nnn(-c3ccc4noc(-c5ccc(Cl)cc5)c4c3)c2C)c1	i
COc1nn(C)cc1C(=O)Nc1nnc(SCC(=O)Nc2ccc3c(c2)OCO3)s1	i
CSc1cccc2sc(N(CCN(C)C)C(=O)c3ccccc3)nc12	i
Cc1cc2oc3c(c(=O)c2cc1Cl)C(c1ccccc1)N(CCCN(C)C)C3=O (centres undefined)	i
COc1cccc(NC(=O)COc2cc(C)nc(N3CCCC3)n2)c1	i
O=C(Cn1cnc2c(-c3ccc(F)cc3)csc2c1=O)N1CCCc2ccccc21	i
O=C(NCc1cccc(C(F)(F)F)c1)c1ccc(Oc2nccnc2N2CCOCC2)cc1	i
CCCCCCCCCCCCCCCCOC[C@H](COP(=O)([O-])OCCCCCC[N+](C)(C)C)OC(C)=O	i
O=C(Nc1nc2c(s1)CN(C(=O)/C=C/c1ccccc1Cl)CC2)c1ccoc1	i
COc1cccc(N2CC(c3nc4ccccc4n3CCc3ccccc3)CC2=O)c1 (centres undefined)	i
COCCNC(=O)Cc1ccc(NS(=O)(=O)c2cccnc2)cc1	i
O=C1CCSCC(C(=O)Nc2nc(-c3ccco3)cs2)N1 (centres undefined)	i
O=C(NC1CCCCC1)c1sccc1S(=O)(=O)N1CCN(c2ccc(F)cc2)CC1	i
Cc1noc(CNC(=O)C2CCN(C(=O)c3ccc(S(=O)(=O)N(C)C)cc3)CC2)n1	i
Cc1ccc(-c2csc3c(=O)n(C)c(SCC(=O)Nc4ccccc4C(F)(F)F)nc23)cc1	i
Later entries:
SMILES	GIRK2 activ
Cn1c(C(F)(F)F)nn(CCNC(=O)C2CCN(S(C)(=O)=O)CC2)c1=O	i
O=C(Nc1ccc(F)cc1)Nc1cc(N2CCN(c3ccccc3)CC2)ncn1	i
COc1ccc(N(Cc2nc(-c3ccccc3)oc2C)S(=O)(=O)c2ccc(OC)cc2)cc1	i
Cc1ccc(-c2nc(CSc3nc4c(oc5ccccc54)c(=O)n3CC3CCCO3)c(C)o2)cc1 (centres undefined)	i
CN1CCc2cc(Cl)c(O)cc2[C@@H](c2ccccc2)C1	i
COc1ccccc1C(=O)Nc1cc(C)nn1-c1nc2c(cnn2-c2ccc(C)c(C)c2)c(=O)[nH]1	i
O=C(NC1(c2nc(-c3cccnc3)no2)CCCCC1)c1ccc2c(c1)OCO2	i
O=C(CSc1ncccc1C(=O)O)c1ccc2c(c1)OCO2	i
CCOc1ccc(-c2nc(N)ncc2Oc2ccccc2OC)c(O)c1	i
O=C(/C=C/c1ccccc1Cl)NCC1(O)CCc2ccccc2C1 (centres undefined)	i
O=C(NCCOc1ccc2c(c1)OCO2)c1ccccc1[N+](=O)[O-]	i
CC1CCc2c(sc(NC(=O)C3CCN(S(=O)(=O)c4ccc(F)cc4)CC3)c2C(N)=O)C1 (centres undefined)	i
CC1CCN(/C=C(\C#N)S(=O)(=O)c2ccc(Cl)cc2)CC1	i
Cc1c(Cl)cccc1NC(=O)C(C)n1ncccc1=O (centres undefined)	i
CCCCCC(=O)/C=C/[C@H]1C(O)CC(O)[C@H]1C/C=C\CCCC(=O)O (some centres undefined)	i
CN(C)c1cccc(C(=O)N2CCN(C(=O)C3CC3c3ccc4c(c3)OCO4)CC2)c1 (centres undefined)	i
O=C(Cn1nc(-c2ccccc2)c2sc(N3CCCC3)nc2c1=O)NCc1ccc2c(c1)OCO2	i
CN(C)c1cccc(C(=O)N2CCC(C(=O)Nc3nccs3)CC2)c1	i
CCN(CC)C(=O)Cn1c(CN2CCCCCC2)nc2ccccc21	i
CCOC(=O)c1ccc(NC(=O)CSc2nnc(CSc3nc(C)cc(C)n3)n2C)cc1	i
CCOc1ccc(-n2c(C)cn3c4c(=O)n(CCN5CCCCC5)c(=O)n(C)c4nc23)cc1	i
Cc1ccc(C)n1CCCC(=O)N1CCn2c1nc1ccccc12	i
Nc1c(C(=O)O)sc2nc(-c3ccccc3)cc(C(F)(F)F)c12	i

A portion of the library; the hit share may differ from the screen's.
